Screening results (PubChem BioAssay)
Sa helicase inh – S. aureus DNA helicase inhibition; purified S. aureus helicase, fluorescence unwinding assay; about half of the hits fall short of the stated cut; inhibition, %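 (tested at about 80 µM)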; 120,000 compounds, 0.05% hits;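 active means both duplicates at 50% or more, or one of them with a favoured structure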;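 further: 0% = mean of negative control wells and 100% = mean of positive control wells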
MgrA-DNA mod – alters Staphylococcus aureus MgrA binding to DNA; fluorescence polarization; inhibition, %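 (about 10 µg/mL by stock and volumes)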; AID 602314; 84,000 compounds, 0.13% hits;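 active means above 50% in either of two replicates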;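 further: 0% = protein plus DNA without compound and 100% = DNA alone without protein; higher means less MgrA bound to DNA so lower polarization; one replicate is shown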
Starred values were filed as active, the others as inactive; · = no result given; & = joins results of further samples. Not all compounds are listed; the hit share may differ from the screen's.

SMILES	Sa helicase inh	MgrA-DNA mod
O=S(=O)(NCCc1ccccn1)c1ccc2ccccc2c1	7	·
C1CN(c2nnn(CC3CC3)n2)CCO1	·	-2.7
Cc1cc(NC(=O)CC(CC(=O)O)c2ccc(C(F)(F)F)cc2)no1 (stereo not drawn)	·	-1.2
COc1ccc(-c2cc(C(F)(F)F)n3nc(C(=O)NCCCn4ccnc4)c(Cl)c3n2)cc1	·	0.0
CCN(CC)CCOc1c(Br)ccc2c1sc1nc3n(c(=O)c12)CCC3	15	·
NNC(=S)Nc1ccccc1	-14	·
N#Cc1c(F)cccc1N1CCC(C(N)=O)CC1	0	·
CCN1CCN(Cc2cc(Cl)c3cccnc3c2O)CC1	27	·
Clc1ccc(C=Nc2ccc3c(c2)OCCOCCOCCO3)c(Cl)c1	9	-0.6
O=C(CSC1=NCCS1)Nc1ccc(Cl)cc1C(F)(F)F	-9	0.0
CCOC(=O)N1CCC(NC(c2ccc(F)cc2)c2nnc(-c3ccccc3)o2)CC1 (stereo not drawn)	12	·
O=C(CN(CCc1ccc2c(c1)OCCO2)CC(=O)NC1CC1)NC1CC1	3	·
O=S(=O)(NC1CCCCC1)c1ccccc1	-10	-1.1
O=C(O)C1CCN(C(=O)CSc2ncnc3ccccc23)CC1	-2	·
CC1CCc2c(sc3ncnc(NCCN4CCOCC4)c23)C1 (stereo not drawn)	-15	·
CC1(C)C(=O)NCCN1C(=O)CSc1nccc(-c2ccccc2)n1	-1	-3.1
CCN(CC)c1nc2n(c(=S)n1)CCS2	0	1.2
CC(C)CC(=O)Nc1c(C(=O)Nc2cccc(F)c2)oc2ccccc12	-11	·
CCc1cc2c(cc3c(=O)n(CC(=O)NCCN4CCOCC4)ncn32)s1	16	·
Cc1noc(C)c1C(=O)n1ccc(-c2cccs2)n1	·	0.2

One compound at a time (already shown).
`O=S(=O)(NC1CCCCC1)c1ccccc1` reads Sa helicase inh: -10; MgrA-DNA mod: -1.1
`Clc1ccc(C=Nc2ccc3c(c2)OCCOCCOCCO3)c(Cl)c1` reads Sa helicase inh: 9; MgrA-DNA mod: -0.6

(more compounds)
SMILES	Sa helicase inh	MgrA-DNA mod
O=C(O)/C=C/C(=O)NC1CCN(Cc2ccccc2)CC1	·	-2.0
Cc1nc2ccc(S(=O)(=O)NC(CC(C)C)C(=O)N3CCn4c3nc3ccccc34)cc2s1 (stereo not drawn)	4	·
O=C(Nc1ccc(N2CCOCC2)c2nonc12)c1cccs1	-9	3.7
CC(Sc1nnc(CN2CCCC2)n1Cc1ccccc1)C(=O)c1ccc(NS(C)(=O)=O)cc1 (stereo not drawn)	2	·
COC(=O)c1cccc(CSc2ncccc2C(=O)O)c1	·	-1.4
C#CCNC(=O)c1cc(=O)[nH]c2ccccc12	-8	·
Cn1ccnc1C(=O)c1cccc(S(=O)(=O)N2CCCc3ccccc32)c1	20	·
Cc1ccc(Cl)cc1N1CCN(C(=O)Cn2ncc3c(=O)oc4ccccc4c32)CC1	19	·
CCOC(=O)CC1=C(C(=O)OCC)C2(C(=O)N(CC(=O)OC)c3ccccc32)C(C(=O)OCC)=C(N)O1 (stereo not drawn)	14	·
NCCCc1nc2cc3ccccc3cc2[nH]1	17	0.1
CCOC(=O)C1=C(NC2CCCCC2)C(=O)N(c2ccccc2)C1	10	-3.4
NC(=O)C1CCN(C(=O)N2c3ccccc3Sc3ccccc32)CC1	-23	·
NNC(=O)c1cc(COc2cc(Cl)cc(Cl)c2)on1	2	·
CCc1ccc(NCc2cn(-c3ccccc3)nc2-c2cccs2)cc1	-2	-1.4
Cc1cc(C(=O)COC(=O)Cc2coc3cc(O)ccc23)c(C)n1C	8	·
O=C(COc1ncnc2sccc12)c1ccc(Cl)s1	-23	·
NC(=O)/C(=N\O)c1nc(-c2ccc(Cl)cc2)cs1	-3	·
CC(CCc1ccccc1)NCC(O)c1ccc(O)c(C(N)=O)c1 (stereo not drawn)	·	1.3&0.9
Cc1ccc(CN2C(=O)N/C(=C/c3ccc4c(c3)n(C)c(=O)n4C)C2=O)cc1	-11	·
O=C(COc1ccc(Cl)cc1)OC1CCOC1=O (stereo not drawn)	-2	·

Reprinted at random: 6 records from the list
SMILES	Sa helicase inh	MgrA-DNA mod
NC(=O)/C(=N\O)c1nc(-c2ccc(Cl)cc2)cs1	-3	·
COC(=O)c1cccc(CSc2ncccc2C(=O)O)c1	·	-1.4
Cc1nc2ccc(S(=O)(=O)NC(CC(C)C)C(=O)N3CCn4c3nc3ccccc34)cc2s1 (stereo not drawn)	4	·
O=C(COc1ccc(Cl)cc1)OC1CCOC1=O (stereo not drawn)	-2	·
NNC(=O)c1cc(COc2cc(Cl)cc(Cl)c2)on1	2	·
CCOC(=O)CC1=C(C(=O)OCC)C2(C(=O)N(CC(=O)OC)c3ccccc32)C(C(=O)OCC)=C(N)O1 (stereo not drawn)	14	·

The listing picks up; the 2 compounds before the break are reprinted first.
SMILES	Sa helicase inh	MgrA-DNA mod
Cc1ccc(CN2C(=O)N/C(=C/c3ccc4c(c3)n(C)c(=O)n4C)C2=O)cc1	-11	·
O=C(COc1ccc(Cl)cc1)OC1CCOC1=O (stereo not drawn)	-2	·
O=C(O)c1ccccc1S(=O)(=O)NCC(O)COC1CCCCC1 (stereo not drawn)	17	-5.8
COc1cc2c(cc1OC)CN(CC(=O)NC(=O)NCc1ccccc1)CC2	6	·
COc1ccc(N=C(CCCN2C(=O)c3ccccc3C2=O)C2=C(O)CC(C)(C)CC2=O)cc1	11	1.1
O=C(CC1SC(=Nc2ccccc2)N(c2ccccc2)C1=O)Nc1cccc(Cl)c1 (stereo not drawn)	·	-0.4
N#Cc1cc(C#N)c(SCC(N)=O)nc1N	-3	0.9
CCCCCn1c(=O)[nH]c2cc(C(=O)NCCCC)ccc2c1=O	-19	·
Cc1cccc(N2CCN(S(=O)(=O)c3cnc[nH]3)CC2C)c1 (stereo not drawn)	9	·
COC(=O)N(C)CCCC1(C)C(=O)N(C)c2ccc(O)cc21 (stereo not drawn)	13	·
Cn1c(=O)[nH]c(=O)c2c(C(F)(F)F)cc(-c3ccco3)nc21	-6	·
COc1ccccc1C1CC(=O)NC(SCC(=O)N2CCCC2)=C1C#N (stereo not drawn)	15	·
CCOC(=O)N1CCN(CCC(=O)c2ccc(Br)cc2)CC1	7	0.0
COc1ccc(-c2csc(CC#N)n2)cc1OC	9	·
CSc1nc2ccc(NC(=O)c3c(C)nn(-c4ccccc4)c3Cl)cc2s1	3	·
CCOC(=O)N1CCN(Cn2nc(COc3ccc(C4CCCCC4)cc3)n(C)c2=S)CC1	-2	1.9
N#C/C(=C\c1ccccc1)c1cccc(Cl)c1	·	-2.9
CC1S/C(=N\N=C2CCC(C(C)(C)C)CC2)NC1=O (stereo not drawn)	-26	·
COc1ccc2cc(Br)ccc2c1CC(=O)O	-11	·
O=C(O)CC(NC(=O)C12CC3CC(CC(C3)C1)C2)c1ccc(Cl)cc1 (stereo not drawn)	-4	-3.3
O=C(NN1C(=O)c2ccccc2C1=O)c1ccccc1	-2	-1.6
Nc1cccc(C(=O)Nc2cccc(C(F)(F)F)c2)c1	12	-3.4
Cc1ccc(S(=O)(=O)NNC(=S)NCc2ccccc2)cc1	·	-4.1
Oc1ccc(CN2CCOCC2)c2cccnc12	9	·
CC(=O)Oc1ccc(C(=O)Nc2cc(Cl)ccc2OC(C)=O)cc1	3	·
CC(Sc1nnc(-c2ccc(F)cc2)n1Cc1ccccc1)C(=O)NCc1ccco1 (stereo not drawn)	0	·
Cc1ccc2[nH]c(=O)c3cc(C(=O)NCC4CCCO4)sc3c2c1 (stereo not drawn)	7	·
CSc1nc2ccc(S(=O)(=O)N(C)C)cc2s1	-10	-0.9
CC1Cc2ccccc2N1C(=O)Cn1c(=O)oc2cc(S(=O)(=O)N3CCCC3)ccc21 (stereo not drawn)	-16	·
CN(C)/C=N/S(=O)(=O)c1cc(Cl)c(Oc2ccc([N+](=O)[O-])cc2)c(Cl)c1	·	-1.1
CCc1ccc(NC(=O)CSc2nc3ccccc3[nH]2)cc1	5	0.8
O=S(=O)(CCN1CCN(S(=O)(=O)c2ccccc2C(F)(F)F)CC1)c1ccc(Br)cc1	26	·
Cc1ccc(Nc2cc(=O)[nH]c(=O)[nH]2)cc1Cl	8	-1.4
CCOC(=O)COc1nc(C)cc(COC)c1C#N	·	0.7
Cc1ccccc1CSc1nc2ccsc2c(=O)n1Cc1ccccc1	8	2.0
NC(=O)c1noc(C(=O)c2ccccc2)c1N	8	·
CC1CCN(C(=S)SCC(=O)n2c3c(c4ccccc42)CCCC3)CC1	0	0.2
CCS(=O)c1ccccc1C(=O)NCc1ccc(C)cc1 (stereo not drawn)	6	·
CC(=O)Nc1ccc2c(c1)CCCN2C(=O)c1cccs1	7	·
O=C(Cc1cn2ccsc2n1)Nc1ccccc1OC(F)F	-8	·
c1ccc(CSC2=NCCCN2C2CCCCC2)cc1	·	-1.1
CCNc1nc(OC)nc(N2CCC(Cc3ccccc3)CC2)n1	-16	·
O=C(COC(=O)c1ccc(N2C(=O)c3ccccc3C2=O)cc1)Nc1ccc2[nH]c(=O)[nH]c2c1	16	·
O=C(c1ccc(N2CCCc3ccccc32)s1)n1ccnc1	-22	·
Cn1ncc2c1ncn1nc(-c3ccncc3)nc21	-17	·
Cc1cccc(NC(=O)Nc2cccc(C(F)(F)F)c2)n1	0	-1.8
CCCCN(CC)c1ncnc2c1sc1nc(N3CCOCC3)c3c(c12)CC(C)(C)OC3	-12	2.7
O=C(O)CNC1=NCCCCC1	-13	·
O=S(=O)(NNc1ccnc2cc(Cl)ccc12)c1ccccc1F	2	·
O=C(CCc1nc2cccnc2n1Cc1cccs1)N1CCC2(CC1)OCCO2	-49	·
Cn1cnnc1-c1ccc(N)cc1	15	-6.9
CCOC(=O)c1c(NC(=O)COCc2cc(-c3ccc(F)cc3)on2)sc(C)c1C	7	·
O=C(CCCN1C(=O)c2ccccc2C1=O)Nc1c(C(=O)C2CC2)oc2ccccc12	4	·
CCOc1cc(C=C2C(=O)N(C)C(=O)N(C)C2=O)ccc1OCCOc1cccc(C)c1	·	-1.0
O=C(CCCn1c(=O)c2sccc2n(CC(=O)NCc2ccco2)c1=O)NCc1ccco1	-13	·
COC(=O)c1ccc(CSc2nc3ccccc3c(=O)n2N)cc1	-2	·
COc1ccc(CC(=O)Nc2ccc3nc4n(c(=O)c3c2)CCCC4)cc1	10	-2.6
O=C1Nc2ccc(S(=O)(=O)N(CCO)CCO)c3cccc1c23	-11	0.8
Cn1c(N)c(C(=S)NC(=O)C2CC2)c(=O)n(C)c1=O	3	·
CCOC(=O)C1=C(C)NC(=S)N(C=O)C1c1ccccc1 (stereo not drawn)	·	3.7
COc1cccc(CNC(=O)Cn2ncn3c(C)c(C(=O)NC4CCCCC4)c(C)c3c2=O)c1	-22	·
O=S(=O)(Cc1ccccc1Cl)N1CCOCC1	22	3.2
New compounds follow.
SMILES	Sa helicase inh	MgrA-DNA mod
CSc1ncccc1C(=O)N(C)C	·	-3.6
CCCc1nc2ccccc2n1CC(=O)Nc1sc(C(=O)N(C)C)c(C)c1C(=O)OCC	-9	·
O=C(O)C1(O)c2ccccc2NC(=S)N1Cc1ccccc1 (stereo not drawn)	-5	·
CC1CN(Cc2ccccc2)C(C)CC1O (stereo not drawn)	10	2.6
O=C(c1ccco1)N1CCN(c2cccc3[nH]ccc23)CC1	·	-1.8
Cc1ccc2cccc(OCc3ccc(Br)cc3)c2n1	8	-1.2
CC(C)Cc1ccc2c(N)c(C(=O)c3ccccc3)sc2n1	12	-1.0
COc1ccc(N(C)C(=O)CCc2nc(-c3ccccc3F)no2)c(OC)c1	10	0.7
N#CCCn1cc(CNCCOc2ccccc2)c2ccccc21	-3	·
c1cc(-c2nnc(C34CC5CC(CC(C5)C3)C4)o2)ccn1	6	·
COC(CNC(=O)c1ccc(-c2cc(Cl)ccc2Cl)o1)OC	9	·
Cc1ccc(-n2nc(C)c3c(C)cc(C(=O)NCc4ccc(CN5CCOCC5)o4)nc32)cc1	-3	0.4
Cc1ccccc1Nc1nc(Nc2ccccc2C)nc(Sc2nccn2C)n1	10	-0.6
COc1cccc(NC(=O)CSc2nnc(N)s2)c1	5	1.2
Cc1nc(S(=O)(=O)NCc2ccc(-c3cccs3)cc2)cn1C	21	·
CSc1nsc(SCc2ccc(F)cc2)n1	28	2.8
O=C(CC(NCc1ccccc1)C(=O)O)c1ccc(C2CCCCC2)cc1 (stereo not drawn)	2	11
COC(=O)c1cc(-c2ccc(Cl)cc2)nc2ccccc12	1	1.4
CN1N=C(c2ccc3c(c2)OCCO3)CCC1=O	0	·
C1=CC(=C2SCCS2)C=C1	-20	·
Cc1ccc(C#N)c(=O)[nH]1	-2	2.5
CCCNC(=O)Nc1cn(CC(C)C)c(=O)c2ccccc12	0	·
Cc1ccc2c(C(=O)CSc3ccccc3)c(C)[nH]c2c1	-9	28
CC(=O)OCC(=O)Nc1ccccc1C(F)(F)F	2	-1.2
COc1cc(/C=N/NS(=O)(=O)c2ccc(C)cc2)cc(OC)c1OC	·	-1.9
COC(=O)c1ccc(N2CCN(Cc3ccccc3)CC2)c(N)c1	1	-1.3
N#Cc1c(-c2ccccc2)nc(N2CCCC2)[nH]c1=O	3	0.6
CCn1c(-c2ccccc2)c(C(=O)CN2CCN(S(=O)(=O)c3cccs3)CC2)c2ccccc21	-9	·
Fc1ccc(-c2n[nH]c(=S)n2CCN2CCOCC2)cc1	10	·
COc1ccc(CN2CCc3cc(OC)c(OC)cc3C2)cc1O	5	-2.3
CCC(=O)NCCc1csc2nc(-c3ccc(Cl)cc3)nn12	5	·
COc1ccc(NC(=O)COC(=O)/C=C/c2ccco2)cc1	2	·
N#Cc1cnn(-c2nc(-c3ccc(Br)s3)cs2)c1N	-13	·

Four structures already listed, ordered by length of the SMILES, falling.
SMILES	Sa helicase inh	MgrA-DNA mod
CCn1c(-c2ccccc2)c(C(=O)CN2CCN(S(=O)(=O)c3cccs3)CC2)c2ccccc21	-9	·
COc1cc(/C=N/NS(=O)(=O)c2ccc(C)cc2)cc(OC)c1OC	·	-1.9
COC(=O)c1ccc(N2CCN(Cc3ccccc3)CC2)c(N)c1	1	-1.3
N#Cc1c(-c2ccccc2)nc(N2CCCC2)[nH]c1=O	3	0.6
